MbtI inh: inhibitors of Mycobacterium tuberculosis siderophore enzyme MbtI | P9WFX0 | purified MbtI enzyme, fluorescence intensity read-out | inhibition, %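 (about 17 µg/mL by stock and volumes)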 | actives 0.89% (n = 100,000);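 active = above 50% in both replicates, above 80% if mildly self-fluorescent; inactive = the rest, strongly fluorescent compounds included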;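 also: 0% = mean of negative and 100% = mean of positive controls; one replicate is shown; some compounds called inactive have numbers as strong as hits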
Target sequence (P9WFX0 whole entry, looked up): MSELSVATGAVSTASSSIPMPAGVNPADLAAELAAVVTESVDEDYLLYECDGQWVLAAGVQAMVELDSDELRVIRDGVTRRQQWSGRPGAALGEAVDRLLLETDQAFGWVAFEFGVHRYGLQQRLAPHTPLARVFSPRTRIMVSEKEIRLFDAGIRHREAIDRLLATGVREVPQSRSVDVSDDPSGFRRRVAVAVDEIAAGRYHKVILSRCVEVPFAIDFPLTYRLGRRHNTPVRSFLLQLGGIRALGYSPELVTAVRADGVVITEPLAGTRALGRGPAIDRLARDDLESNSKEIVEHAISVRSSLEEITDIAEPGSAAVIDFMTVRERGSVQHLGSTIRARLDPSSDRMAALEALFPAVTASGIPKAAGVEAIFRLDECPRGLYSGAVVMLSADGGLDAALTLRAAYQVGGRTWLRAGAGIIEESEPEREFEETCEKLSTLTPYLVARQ
PV pol inh: inhibitors of poliovirus RNA polymerase binding and polymerization; AID 588519; % elongation, % (compound at 16.7 µg/mL); poliovirus polymerase elongation, fluorescence polarization; active compounds read low; actives 0.66% (n = 150,000); P03300; in the data active = % elongation below about 90%; also: some results filed as inactive read as strong as hits
Target sequence (P03300 1749-2209 limits assumed): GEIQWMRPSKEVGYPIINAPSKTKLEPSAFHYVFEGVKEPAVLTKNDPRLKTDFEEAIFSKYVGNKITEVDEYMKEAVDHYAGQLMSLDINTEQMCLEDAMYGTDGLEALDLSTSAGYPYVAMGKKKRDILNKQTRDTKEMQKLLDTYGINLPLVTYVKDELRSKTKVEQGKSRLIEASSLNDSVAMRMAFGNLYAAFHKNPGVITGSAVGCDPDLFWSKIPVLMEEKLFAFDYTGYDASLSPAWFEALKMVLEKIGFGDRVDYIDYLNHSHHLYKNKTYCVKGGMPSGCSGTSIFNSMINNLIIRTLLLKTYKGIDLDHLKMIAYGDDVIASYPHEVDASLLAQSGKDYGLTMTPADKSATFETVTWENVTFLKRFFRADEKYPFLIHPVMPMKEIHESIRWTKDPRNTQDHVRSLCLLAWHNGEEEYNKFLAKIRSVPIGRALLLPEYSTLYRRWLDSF
Mtb MenB inh: Mtb MenB enzyme inhibition; actives 0.43% (n = 100,000); inhibition, %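 (about 12 µg/mL by stock and volumes)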; MenB enzyme assay, absorbance read-out; some hits fall short of the stated cut; P9WNP5; AID 540299;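 active = mean of two replicates above 30%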;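 also: 0% = no compound and 100% = wells with inactive enzyme; the first replicate is given; strong numbers were not always called active; inactives centre near -10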
PV pol inh intensity: second read-out of PV pol inh, no call of its own (marks repeat the call); % elongation; measured here: total intensity read-out; formula for this scale not given here;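 total fluorescence in place of polarization; lower means less elongation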
Starred values were filed as active, the others as inactive; · = not tested or not shown.

Below each compound – MbtI inh | PV pol inh | PV pol inh intensity | Mtb MenB inh
1) CCn1nc(C)cc1C(=O)n1nc(C)c(Sc2nccn2C)c1C
    3 | 106 | 105 | 19
2) Cc1cnn(Cc2ccccc2)c1N
    -8 | 99 | 104 | -24
3) CN(C)CCCNc1c2c(nc3ccccc13)CCC2
    -5 | 99 | 100 | 4
4) CC12CCC(=O)N1C(C(=O)OCN1C(=O)c3ccccc3C1=O)CS2 (stereo unspecified)
    -11 | 109 | 105 | -24
5) CCOC(=O)Cn1c(=NC(=O)c2ccco2)sc2c(C)cc(C)cc21
    -10 | 100 | 106 | -18
6) Cc1cc(C)c2nc(C(F)(F)F)nc(N3CCN(Cc4ccccc4)CC3)c2c1
    -10 | 103 | 105 | -32
7) CC1(c2csc(Nc3ccccc3Cl)n2)CCC(=O)O1 (stereo unspecified)
    8 | 100 | 100 | -1
8) COC(=O)c1cc(=O)n2c(nc3ccccc32)s1
    0 | 103 | 105 | 0
9) N#CNc1nc2ccccc2nc1Cl
    32 | 100 | 102 | ·
10) C(=N\c1nc2ccccc2s1)/Nc1nc2ccccc2s1
    151 | 102 | 106 | 1
11) O=C1CSC(c2cccs2)N1 (stereo unspecified)
    -1 | 100 | 106 | 11
12) Cc1ccc(-n2c(SCc3nnc4n3CCCCC4)nnc2-c2ccccc2)cc1
    -1 | 100 | 91 | -27
13) CCN(CC)S(=O)(=O)c1ccc(NC(=O)C2CC(O)CN2S(=O)(=O)c2ccc(OC)cc2)cc1 (stereo unspecified)
    2 | 103 | 104 | 6
14) C#CCNC(C)c1ccccc1 (stereo unspecified)
    -5 | 104 | 105 | -52
15) Cc1nnc(NC(=O)CSc2nnc(CNC(=O)COc3ccc(Cl)cc3)n2-c2ccccc2)s1
    -7 | 103 | 103 | -17
16) CCOC(CCn1c(=S)[nH]c2cc(C(=O)OC)ccc2c1=O)OCC
    -7 | 103 | 104 | -9
17) CCSc1ccc(-c2ccccc2)nn1
    2 | 108 | 100 | -32
18) O=C(OCC(=O)N1CCN(Cc2ccccc2)CC1)c1ccc(Cl)cc1
    0 | 101 | 98 | -8
19) CNC(=O)c1oc2c(c1C)C(=O)CC(C)(C)C2
    -6 | 106 | 100 | -47
20) COC(=O)c1cccc(C(=O)Nc2cnc3ccccc3c2)n1
    -3 | 102 | 96 | -18

3 structures from above, arranged by number of heavy atoms, low to high:
Below each compound – MbtI inh | PV pol inh | PV pol inh intensity | Mtb MenB inh
19) CNC(=O)c1oc2c(c1C)C(=O)CC(C)(C)C2
    -6 | 106 | 100 | -47
10) C(=N\c1nc2ccccc2s1)/Nc1nc2ccccc2s1
    151 | 102 | 106 | 1
1) CCn1nc(C)cc1C(=O)n1nc(C)c(Sc2nccn2C)c1C
    3 | 106 | 105 | 19

(listing goes on)
Below each compound – MbtI inh | PV pol inh | PV pol inh intensity | Mtb MenB inh
21) CC1(C)CN=C(NC2CCCCC2)S1
    0 | 101 | 96 | 5
22) Nc1ccc2c(c1)Cc1ccccc1-2
    117 | 101 | 101 | 1
23) CCN(C(=O)COc1ccc(-c2nnco2)cc1)c1cccc2ccccc12
    -2 | 103 | 109 | -24
24) COc1ccc(/C=N/NC(=O)c2ccc3c(c2)NC(=O)C(C)(C)O3)cc1OC
    88 | 100 | 102 | 8
25) COc1ccc(C2(CC(=O)O)CCOC(C)(C)C2)cc1 (stereo unspecified)
    -20 | 101 | 99 | -1
26) COc1cc(C2SCCS2)cc(Br)c1OC(=O)NC(=O)c1c(F)cccc1F
    -9 | 101 | 105 | 8
27) O=C(Nc1ccccc1C(=O)O)c1cc(S(=O)(=O)N2CCCC2)ccc1Cl
    · | 102 | 97 | -4
28) CS(=O)(=O)NCCc1ccccc1
    -1 | 101 | 105 | -20
29) Cn1c(=O)c2[nH]c(-c3ccc(Cl)cc3)c(O)c2n(C)c1=O
    · | 95 | 114 | -2
30) C[C@]12N[C@H](Cc3ccccc31)c1ccccc12
    0 | 100 | 100 | 2
31) CCSc1ccccc1C(=O)N=C1NC(=O)CC2C(=O)NCCN12 (stereo unspecified)
    -3 | 101 | 103 | -16
32) CCC(Sc1nc2nccnc2c(=O)n1Cc1ccc2c(c1)OCO2)C(=O)NC1CCCCC1 (stereo unspecified)
    -7 | 104 | 107 | -21
33) O=C(c1cccnc1)N1CCC(Cc2ccccc2)CC1
    9 | 101 | 102 | 9
34) Cn1ncc2c(Nc3cccc(C(F)(F)F)c3)ncnc21
    -89 | 99 | 100 | 3
35) COc1cccc(NC(=O)/C=N/O)c1
    8 | 106 | 109 | -31
36) CS(=O)(=NS(=O)(=O)c1ccccc1C(F)(F)F)c1ccc(Cl)cc1 (stereo unspecified)
    -15 | 104 | 112 | 8
37) CC(C)(C)c1cc(C(=O)NN)no1
    -4 | 101 | 109 | 1
38) NC1=NC2(CCCC2)N=C(Nc2ccccc2)N1
    -6 | 99 | 106 | -13
39) C/C(=N/Nc1nc2ccccc2s1)C1=C(O)c2ccccc2C1=O
    -8 | 103 | 104 | -29
40) CCS(=O)(=O)c1ccc2nc(SCC(=O)n3c4c(c5ccccc53)CCCC4)oc2c1
    -4 | 101 | 100 | 2

Taken from above:
`CC(C)(C)c1cc(C(=O)NN)no1` in PV pol inh intensity is listed with 109
`CS(=O)(=NS(=O)(=O)c1ccccc1C(F)(F)F)c1ccc(Cl)cc1` (stereo unspecified) in MbtI inh is listed with -15

Returning to the listing, repeating the 3 entries before the break.
Below each compound – MbtI inh | PV pol inh | PV pol inh intensity | Mtb MenB inh
38) NC1=NC2(CCCC2)N=C(Nc2ccccc2)N1
    -6 | 99 | 106 | -13
39) C/C(=N/Nc1nc2ccccc2s1)C1=C(O)c2ccccc2C1=O
    -8 | 103 | 104 | -29
40) CCS(=O)(=O)c1ccc2nc(SCC(=O)n3c4c(c5ccccc53)CCCC4)oc2c1
    -4 | 101 | 100 | 2
41) Cc1noc(C)c1CSc1ccccc1C(=O)Nc1nccs1
    10 | 108 | 113 | 16
42) CC(C)NC(=O)c1ccc(-c2ccc(F)cc2)o1
    90 | 101 | 101 | 30*
43) N#CC1=C(N)N2C(=C(C#N)C1c1cccnc1)Sc1ccccc12 (stereo unspecified)
    5 | 72 | 176 | -34
44) COc1ccc(-c2nc3c(c(SCC(N)=O)n2)Cc2ccccc2O3)cc1
    -8 | 103 | 108 | -20
45) CCOC(=O)c1cc(-c2ccccc2)n(CCC(=O)N2CCCCCC2)c1C
    -11 | 102 | 104 | -21
46) COc1ccc(/C=N/n2cn[nH]c2=S)cc1OC
    -13 | 104 | 104 | -27
47) O=C(Nc1ccccc1)NC1CCCCC1
    -9 | 102 | 107 | 0
48) CC(C)C(=O)NC(=S)Nc1ccc(N2CCCCC2)cc1
    10 | 99 | 104 | 8
49) COc1ccc(-c2noc(N(C)c3ccccc3)n2)cc1
    -16 | 106 | 107 | -16
50) CC1NCCc2sccc21 (stereo unspecified)
    -8 | 104 | 100 | -57
51) Clc1ccccc1CNCc1ccc2c(c1)OCO2
    8 | 102 | 102 | -19
52) Cc1ccc(OCc2nnc(NC(=O)c3ncoc3-c3cccc(Cl)c3)s2)cc1
    -4 | 105 | 100 | -63
53) O=C(C=C1NCCN1)c1ccccc1
    41 | 101 | 102 | -27
54) c1ccc(CNc2ccc3c(ccc4c5ccccc5[nH]c34)n2)cc1
    90 | 103 | 106 | -22
55) CCC(=O)Nc1c(C#N)c2nc3ccccc3nc2n1Cc1ccccc1
    -14 | 114 | 128 | ·
56) Cn1cc(C(=O)NC2CCCC2)c(=O)c2cc(S(=O)(=O)N3CCCCC3)ccc21
    -3 | 100 | 102 | -23
57) CCOc1ccc(C2C3=C(CCCC3=O)Nc3ncnn32)cc1 (stereo unspecified)
    -7 | 101 | 104 | -6
58) CC(NC(=O)Cn1[nH]c(=O)c2ccccc2c1=O)c1ccc(-n2ccnc2)cc1 (stereo unspecified)
    -4 | 97 | 102 | -9
59) O=C(Cc1cn2ccsc2n1)NCc1ccccc1
    14 | 106 | 102 | 3
60) Cc1nc2sccn2c(=O)c1CCC(=O)O
    6 | 101 | 105 | -13

An excerpt of these results, in markdown:
| No. | structure | MbtI inh | PV pol inh | PV pol inh intensity | Mtb MenB inh |
| --- | --- | --- | --- | --- | --- |
| 1 | CCn1nc(C)cc1C(=O)n1nc(C)c(Sc2nccn2C)c1C | 3 | 106 | 105 | 19 |
| 28 | CS(=O)(=O)NCCc1ccccc1 | -1 | 101 | 105 | -20 |
| 40 | CCS(=O)(=O)c1ccc2nc(SCC(=O)n3c4c(c5ccccc53)CCCC4)oc2c1 | -4 | 101 | 100 | 2 |
| 60 | Cc1nc2sccn2c(=O)c1CCC(=O)O | 6 | 101 | 105 | -13 |
| 2 | Cc1cnn(Cc2ccccc2)c1N | -8 | 99 | 104 | -24 |
| 12 | Cc1ccc(-n2c(SCc3nnc4n3CCCCC4)nnc2-c2ccccc2)cc1 | -1 | 100 | 91 | -27 |
| 15 | Cc1nnc(NC(=O)CSc2nnc(CNC(=O)COc3ccc(Cl)cc3)n2-c2ccccc2)s1 | -7 | 103 | 103 | -17 |

(further entries)
Below each compound – MbtI inh | PV pol inh | PV pol inh intensity | Mtb MenB inh
61) c1ccc2c(NC3CCCC3)nc(N3CCNCC3)nc2c1
    90 | 101 | 102 | -6
62) CC(C)(C)C1CCC(=NNC(=O)Cc2cn3ccsc3n2)CC1 (stereo unspecified)
    -3 | 103 | 107 | -10
63) O=C(Nc1ccc(Cc2ccncc2)cc1)c1cc2ccccn2n1
    -5 | 102 | 106 | -6
64) C=CC[N+]1(CC#Cc2ccccc2)CCOCC1
    8 | 100 | 101 | -7
65) CN(C)c1nc(C#N)nc(N2CCOCC2)n1
    8 | 100 | 92 | -41
66) CCOc1cc(CNCc2ccco2)ccc1OCc1ccccc1
    -10 | 104 | 100 | -33
67) Cc1cccc(Cl)c1NC(=O)N1CCCN(c2ncccc2C(F)(F)F)CC1
    8 | 103 | 107 | -23
68) O=C(Nc1ccccc1F)OCC1CCCN2CCCCC12 (stereo unspecified)
    · | 103 | 111 | -31
69) CCCCn1c(-c2ccc(Br)cc2)nc2ccccc21
    56 | 104 | 104 | -14
70) O=C(Cn1c(SCc2ccc(F)cc2)nc2cccnc21)N1CCCc2ccccc21
    -3 | 102 | 99 | -33
71) NC(=O)C1CCN(C(=O)c2cn(-c3ccccc3)nc2-c2cccs2)CC1
    -5 | 102 | 106 | ·
72) Cc1ccc(Cl)cc1N1CCN(CCCNc2nc3ccccc3n3c(C)nnc23)CC1
    -4 | 101 | 105 | 7
73) CCC1(C)NC(=O)N(/N=C/c2cn(-c3ccccc3)nc2-c2cc3ccccc3o2)C1=O (stereo unspecified)
    84 | 108 | 107 | -27
74) O=C(c1nn(Cc2ccccc2)c(=O)c2ccccc12)N1CCN(Cc2ccc3c(c2)OCO3)CC1
    2 | 98 | 95 | 10
75) O=c1c2ccccc2[nH]c(=S)n1CCCn1ccnc1
    13 | 99 | 97 | 8
76) O=C(NCCc1ccccc1)C(=S)N1CCCC1
    0 | 100 | 101 | -9
77) Cc1ccccc1OCC1=NN2C(=N)/C(=C\c3cccn3-c3ccccc3C)C(=O)N=C2S1
    -9 | 99 | 105 | -10
78) CC1=C(C(=O)Nc2ccccc2C)Sc2ccccc2N1
    · | 102 | 107 | -26
79) O=C(Nc1cnc2ccccn2c1=O)NC1CCCC1
    43 | 102 | 102 | -6
80) Cc1sc(-c2c(F)cccc2F)nc1O
    53 | 105 | 107 | -25
81) CCOc1ccc(N2CC(=O)SC2=S)cc1
    -21 | 104 | 104 | -87
82) CCOC(=O)N1CCN(c2ccc(S(=O)(=O)N(Cc3ccccc3)Cc3ccccc3)cn2)CC1
    -1 | 98 | 101 | -4
83) CCOc1ccc(N=C2SCC(=O)N2CC)cc1
    2 | 102 | 104 | -28
84) CNC(=O)CN(Cc1ccccc1)S(=O)(=O)c1ccc(Cl)cc1
    -3 | 102 | 104 | -9
85) Cc1ccc(CN(C(=O)C(C)Oc2ccc(Cl)c(C)c2)C2CCS(=O)(=O)C2)o1 (stereo unspecified)
    9 | 102 | 101 | -22
86) Cc1cccc(C(=O)NCCc2ccc(S(N)(=O)=O)cc2)c1
    -3 | 102 | 105 | -37
87) COc1cc(NC(=O)CCNS(=O)(=O)c2ccc3c(c2)CCCC(=O)N3)cc(OC)c1OC
    -9 | 101 | 103 | -4
88) CN1C(=O)c2ccccc2Sc2ccc(NC(=O)N3CCCC3)cc21
    -2 | 105 | 98 | 5
89) O=C(c1ccc(S(=O)(=O)NCc2ccco2)cc1)N1CCC(n2c(=O)[nH]c3ccccc32)CC1
    -4 | 102 | 107 | -24
90) CCc1sc(C(=O)Nc2cccc(Cn3cccn3)c2)cc1Br
    16 | 101 | 106 | -2
91) Cc1cc(-c2cccs2)c2c(N)c(C(=O)c3ccccc3)sc2n1
    -1 | 102 | 116 | -14
92) COc1ccc(NC(=O)Cc2nn(C)c(=O)c3ccccc23)cc1
    -14 | 104 | 107 | -12
93) CCC(c1c(N)[nH]c(=S)[nH]c1=O)c1c(N)[nH]c(=S)[nH]c1=O
    40 | 103 | 102 | -3
94) COc1ccc(NC(=S)N(Cc2ccccc2)Cc2cccn2Cc2ccc(C)cc2C)cc1OC
    -11 | 101 | 102 | -14
95) CCC1CCCCN1C(=O)Cn1c(=O)n(Cc2ccccc2Cl)c(=O)c2cc(OC)c(OC)cc21 (stereo unspecified)
    2 | 103 | 107 | -23
96) CCC(=O)c1nc2ccccc2c(=O)n1-c1ccccc1C
    -9 | 103 | 106 | ·

Source: PubChem (ICCB-Longwood Screening Facility, Harvard Medical School)

Rows are unselected. Share with any hit: about 2%.
